# Sa helicase inh: S. aureus DNA helicase inhibition; purified S. aureus helicase, fluorescence unwinding assay; about half of the hits fall short of the stated cut; inhibition, %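 (tested at about 80 µM)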; 120,000 tested, 0.05% active; AID 485395;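 active = both duplicates at 50% or more, or one of them with a favoured structure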;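 note: 0% = mean of negative control wells and 100% = mean of positive control wells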
# MgrA DNA FP: S. aureus MgrA-DNA binding modulation | inhibition, %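 (about 10 µg/mL by stock and volumes)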 | fluorescence polarization | 84,000 tested, 0.13% active;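 active = above 50% in either of two replicates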;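 note: 0% = protein plus DNA without compound and 100% = DNA alone without protein; higher means less MgrA bound to DNA so lower polarization; one replicate is shown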
# Numbers without * were called inactive; / = no result given; & = joins results of further samples. An excerpt. The share of hits here may be higher or lower than overall.
# Below each SMILES – Sa helicase inh, MgrA DNA FP
CC1CCc2nc3ccc(S(=O)(=O)N4CCC(C(=O)N5CCCCC5)CC4)cc3c(C(=O)O)c2C1 (stereo not drawn)
    25.0, /
CCc1ccc(NS(=O)(=O)c2ccc(CN3C(=O)c4cccnc4C3=O)cc2)cc1
    8.0, 0.2
CCN1CCN(C(=O)CSc2ccc(C)cc2)CC1
    -2.0, -3.5
O=C1Nc2ccccc2S/C1=C/c1ccc(C(=O)NC2CCCC2)cc1
    2.0, 0.1
Cc1cccc(NC(=O)c2cnc3ccccn3c2=O)c1
    -2.0, /
O=C(CSc1nc(-c2ccccc2)cc(C(F)(F)F)n1)N1CCCCC1
    13.0, 0.2
O=C(Cn1nnc(-c2cccs2)n1)OCc1nc2sc3c(c2c(=O)[nH]1)CCC3
    8.0, /
C=CCN(CC=C)C(=O)Nc1ccccc1
    2.0, -0.5
CNc1oc(COc2ccc(C)cc2)nc1C#N
    5.0, 0.7
Cc1cc(NC(=O)COC(=O)c2ccccc2)no1
    -8.0, /

# Going on with the list:
# Below each SMILES – Sa helicase inh, MgrA DNA FP
Cc1ccc(C)c2[nH]c(=O)c(C(c3nnnn3C3CCCC3)N3CCCC3)cc12 (stereo not drawn)
    5.0, 7.3
O=C1Nc2ccc(Br)cc2/C1=N/N1C(=O)C(O)=CC1(O)c1ccccc1 (stereo not drawn)
    15.0, 0.2
Cc1ccc(C(=O)OC2OCCOC2OC(=O)c2ccc(C)cc2)cc1 (stereo not drawn)
    -21.0, /
CC(NC=C(C#N)C#N)C(C)(C)C (stereo not drawn)
    /, -2.7
O=C(O)c1ccc(-c2nc3cc(Cl)ccc3s2)cc1
    6.0, /
CCC(=O)Nc1ccc(N2CCN(C(=O)CC(C)C)CC2)cc1
    4.0, -0.1
Cc1ccc2c(c1)CCCN2C(=O)C1CCCN1C(=O)OC(C)(C)C (stereo not drawn)
    -13.0, /
COc1ccc(NC(=O)c2sc3cc(Cl)ccc3c2Cl)cn1
    -21.0, 2.3
CCOC(=O)Cc1nc2cc(Cl)ccc2o1
    -16.0, /
CCOC(=O)c1oc2ccccc2c1CN(C)Cc1ccccc1OC
    16.0, /

# The listing continues:
# Below each SMILES – Sa helicase inh, MgrA DNA FP
O=C(O)CSc1nnc(-c2ccccc2Br)n1C1CCCCC1
    1.0, -2.7
CCN(CC)c1ccc(/C=C2/SC(=Nc3cccc(C)c3)NC2=O)c(OC)c1
    -145.0, -11.9
CNC(=O)C(NS(=O)(=O)c1ccc(C)cc1)C(C)C (stereo not drawn)
    20.0, -3.1
COc1ccc(-c2ccc(=O)n(Cc3c(F)cccc3Cl)n2)cc1
    1.0, /
COc1c2occc2c(OC)c2c(=O)cc(C)oc12
    /, 5.5&1.6
CCCN1Cc2cccc(C(=O)NCc3ccccc3)c2C1=O
    -11.0, /
CCOC(=O)C(CC)Sc1nnc(-c2c[nH]c3ccccc23)n1CCOC (stereo not drawn)
    7.0, /
COc1cc(C)ccc1OCC(=O)NN1C(C)CCCC1C (stereo not drawn)
    -1.0, /
O=S(=O)(Nc1ncccc1OCc1cc(F)cc(F)c1)c1cccc(Cl)c1
    /, -1.6
COC(=O)C1C(c2ccc(OC)cc2)c2c([nH][nH]c2=O)CC1(C)O (stereo not drawn)
    -15.0, /

# The results go on.
# Below each SMILES – Sa helicase inh, MgrA DNA FP
CC(C)n1cc(-c2nc(C(C)(C)C)cs2)c(=O)n(Cc2ccccc2)c1=O
    /, 0.8
Nc1nc(SCC(=O)c2ccc(Cl)cc2)n[nH]1
    /, -2.7
CC1CCCN(Cc2nc3c(c(=O)n(C)c(=O)n3C)n2CCc2ccccc2)C1 (stereo not drawn)
    6.0, -1.8
COC(=O)c1ccccc1NC(=O)CNc1cc(OC)c(OC)cc1C
    -22.0, /
CN(C(=O)CSc1nnc(Nc2ccccc2)s1)C1CCS(=O)(=O)C1 (stereo not drawn)
    -14.0, /
CC(=O)Nc1ccc(NC=C(C#N)C#N)cc1
    -13.0, /
N#Cc1ccccc1SCc1ccccc1
    /, -1.4
CCOC(=O)Cc1csc(/C(=N/O)C(N)=O)n1
    5.0, 3.2
CC(C)CCN1C(=O)C2(NN(CCO)C(=Nc3ccccc3)S2)c2ccccc21 (stereo not drawn)
    2.0, /
O=[N+]([O-])c1cc(C(F)(F)F)cc([N+](=O)[O-])c1Oc1ccc(Cl)cc1Cl
    /, 3.2

# (list continues)
# Below each SMILES – Sa helicase inh, MgrA DNA FP
COc1ccc(CN(C)CC(=O)NC(=O)Nc2ccc(C)cc2C)cc1
    -2.0, /
O=C(Nc1ccc(F)cc1)c1ccc([N+](=O)[O-])o1
    /, 3.5
COc1ccccc1N1CCN(C(=O)Oc2ccccc2)CC1
    11.0, /
N#C/C(=C/c1ccccc1)c1cccc(C#N)c1
    10.0, 0.8
OCC(c1ccccc1)C1CCCCC1 (stereo not drawn)
    10.0, /
Cc1ccc(-c2cc(NC(=O)COC(=O)C3=NNC(=O)CC3)n(-c3ccccc3)n2)cc1
    -2.0, /
O=C(CCOc1ccccc1)NCC(c1ccco1)N1CCCCC1 (stereo not drawn)
    -4.0, /
COc1ccc(CSc2nnc(SCc3ccc(C(=O)O)cc3)s2)cc1
    15.0, 5.5
CCCNS(=O)(=O)c1nc2nc(C)cc(C)n2n1
    2.0, 0.4
NC(=O)NC(=O)CC1S/C(=N/N=C2\CSC(=O)N2)NC1=O (stereo not drawn)
    -2.0, /

# Additional entries:
# Below each SMILES – Sa helicase inh, MgrA DNA FP
Cc1oc(C(=O)O)cc1CSc1ccccc1C(=O)O
    2.0, -2.1
Cc1c(C(=O)NCC2CCCO2)sc2nc(-c3ccc(F)cc3)cn12 (stereo not drawn)
    13.0, /
O=C(NCc1cccnc1)C1c2ccccc2C(=O)N1Cc1ccccc1 (stereo not drawn)
    4.0, 0.4
Cc1nnc(SCC(=O)c2c[nH]c3ccccc23)n(N)c1=O
    1.0, /
CCOc1ccccc1NC(=O)NCc1ccccc1
    10.0, -0.1
O=C(NCCNc1nccc(C(F)(F)F)n1)C1CC1
    /, 0.2
CC(C)C(=O)Nc1c2c(nn1-c1ccccc1)CSC2
    12.0, /
CCN(CC)c1ncnc2nc[nH]c12
    /, -0.2
CC(=O)N1CCc2cc(S(=O)(=O)NC(CC(C)C)C(=O)N3CCN(c4ccc(F)cc4)CC3)ccc21 (stereo not drawn)
    -23.0, /
COc1ccc(N=C2SCC(=O)N2Cc2ccccc2)cc1
    7.0, /

# (cont.)
# Below each SMILES – Sa helicase inh, MgrA DNA FP
Cc1ccc(CNc2ccc(O)cc2)s1
    16.0, 16.3
COc1ccc(NC(=O)c2ccc(C(C)(C)C)s2)cc1
    /, -3.1
COC(=O)c1cc(-c2ccccc2)nc2ccc(C)cc12
    1.0, 0.0
O=c1cc(C(F)(F)F)[nH]c2c(Br)cccc12
    -18.0, /
CC(C)(C)C(=O)c1sc(NCc2ccco2)c(C(N)=O)c1N
    8.0, /
O=S(=O)(N/N=C/c1ccc2c(c1)OCO2)c1ccc(Cl)cc1
    0.0, -0.2
Nc1[nH]nc2nc(-c3ccccc3)[nH]c(=O)c12
    /, -1.1
CCOC(=O)c1cc(C)n(-c2cccc(Cl)c2Cl)c1-c1ccccc1
    /, -1.6
O=c1oc2ccccc2c(O)c1C=Nc1cccnc1
    16.0, /
Cc1ccc(CNC(=O)Cn2ncc3c2-c2ccccc2OC3)cc1
    -4.0, /

# Continued:
# Below each SMILES – Sa helicase inh, MgrA DNA FP
CN1C(=O)Cc2cc(S(=O)(=O)CCC(=O)N3CCn4c3nc3ccccc34)ccc21
    10.0, /
NNC(=O)Cc1csc(-c2cccc(-n3cccc3)c2)n1
    /, -1.8
Cc1ccnc(N2CCC(C(=O)NCc3ccc(F)cc3)CC2)n1
    5.0, 1.1
Cc1ccccc1CSCC(=O)Nc1sccc1C#N
    -8.0, /
CCOC(=O)N1CCN(Cc2nnc(-c3ccc4c(c3)OCO4)o2)CC1
    13.0, -0.8
O=C1/C(=C/c2cccs2)CS/C1=C/c1cccs1
    -45.0, /
COc1ccc(Br)c(OC)c1C(N)=O
    /, -1.9
CCn1c(CSc2ccc3c(c2)OCCCO3)nc2cc(S(=O)(=O)N(C)C)ccc21
    15.0, /
CC1=NN(c2cccc(C(=O)O)c2)C(=O)/C1=C\c1ccc(-c2cc([N+](=O)[O-])ccc2C)o1
    /, 1.9
CCc1nc(C)ccc1OCC(=O)N(CC)CC
    8.0, 8.3

# New compounds follow:
# Below each SMILES – Sa helicase inh, MgrA DNA FP
S=C(NCCc1ccc(Cl)cc1)Nc1ccccc1
    6.0, -0.2
CCn1ncc(-c2ccnc3cc(C(=O)O)nn23)c1C
    9.0, 17.9
CCN(CC)c1nc(C)nc2ccccc12
    -24.0, -1.4
O=C1NC(=Nc2ccccc2)SC1Cc1cccc2ccccc12 (stereo not drawn)
    /, 1.0
CC(C)(C)N=C1OC(c2ccccc2)(C(F)(F)F)NC(=S)N1c1ccccc1 (stereo not drawn)
    3.0, 0.8
O=C(Cn1nnc(-c2cccnc2)n1)NCC1CCCO1 (stereo not drawn)
    8.0, -5.6
Cc1ccccc1C(=O)Nc1n[nH]c(C(F)(F)F)n1
    14.0, 4.1
CCN(CC)CCn1nc(C)nc1-c1ccccc1O
    -2.0, -0.3
O=[N+]([O-])c1ccc(-c2nc3ccccc3c3nc4ccccc4n23)cc1
    /, -0.7
CCOc1ccc(N2CC(C(=O)Oc3ccc4c(C)cc(=O)oc4c3)CC2=O)cc1 (stereo not drawn)
    5.0, /

# Copied from the results shown for reference:
# Below each SMILES – Sa helicase inh, MgrA DNA FP
CC1CCc2nc3ccc(S(=O)(=O)N4CCC(C(=O)N5CCCCC5)CC4)cc3c(C(=O)O)c2C1 (stereo not drawn)
    25.0, /
CCc1ccc(NS(=O)(=O)c2ccc(CN3C(=O)c4cccnc4C3=O)cc2)cc1
    8.0, 0.2
CCN1CCN(C(=O)CSc2ccc(C)cc2)CC1
    -2.0, -3.5
O=C1Nc2ccccc2S/C1=C/c1ccc(C(=O)NC2CCCC2)cc1
    2.0, 0.1
Cc1cccc(NC(=O)c2cnc3ccccn3c2=O)c1
    -2.0, /

# (listing goes on)
# Below each SMILES – Sa helicase inh, MgrA DNA FP
Cc1ccc(C(=O)CC2(O)C(=O)Nc3ccccc32)o1 (stereo not drawn)
    4.0, 1.6
O=C1CCSc2ccc(Cl)cc21
    /, 2.9
N#CCC(=O)Nc1ccccc1F
    /, -2.4
COc1cn(-c2ccccc2)nc1C(=O)Nc1ccc2nc(C)sc2c1
    -7.0, /
O=C1CC(NS(=O)(=O)c2cccnc2)CN1c1ccccc1 (stereo not drawn)
    11.0, /
COc1ccc(C(=O)Nc2ccc(C(O)(C(F)(F)F)C(F)(F)F)cc2)cc1
    8.0, -0.1
Cn1c(=O)c(=O)n(C)c2cc(S(=O)(=O)N3CCOc4ccccc43)ccc21
    16.0, /
Cc1ccc(S(=O)(=O)OCC23CCC(CC2)CC3)cc1
    /, -2.5
Cn1c(SCc2ccon2)nc2ccccc2c1=O
    4.0, /
COc1cc2c(cc1OC)C(C)N(C(=O)c1cc(C)on1)CC2 (stereo not drawn)
    /, -2.0

# (listing goes on)
# Below each SMILES – Sa helicase inh, MgrA DNA FP
Cc1onc(-c2c(Cl)cccc2Cl)c1C(=O)N(C)C
    /, 0.1
CC(C)(C)c1cc(-c2ccc(Cl)cc2)c(C#N)c(N)n1
    /, 3.4
C=CS(=O)(=O)c1ccc(Oc2ccc(S(=O)(=O)C=C)cc2)cc1
    0.0, -4.3
CC(C)c1ccc(OCC(=O)Nc2ccccc2C(F)(F)F)cc1
    10.0, -1.2
Cn1cccc1CNCC(O)c1ccccc1 (stereo not drawn)
    5.0, 3.6
CCOc1cc(/C=C2/SC(=O)N(c3ccc(Cl)cc3)C2=O)ccc1OCC(=O)O
    /, -0.1
O=C(COC(=O)CSc1nnc(-c2ccccc2F)n1-c1ccccc1)Nc1nnc(-c2ccccc2)o1
    -4.0, /
O=C(COc1ccc(Cl)cc1)N1CCCCC1
    3.0, -2.7
CSc1ncccc1C(=O)c1c(C)[nH]n(-c2ccccc2)c1=O
    /, -3.0
CCN(C(=O)CSC1=NCCS1)C1CCCCC1
    8.0, -2.1

# (further entries)
# Below each SMILES – Sa helicase inh, MgrA DNA FP
CC(C)(C)C(=O)Nc1cccc(-c2nc3ccccc3[nH]2)c1
    18.0, -2.0
Clc1ccc2c(c1)c(-c1ccccc1)nc1nncn12
    9.0, 1.2
CCC(C)(CC(=O)O)CC(=O)Nc1cc(C(F)(F)F)cc(C(F)(F)F)c1 (stereo not drawn)
    /, -3.1
O=C(c1ccccc1)N1CCN(C(=O)C2CC3C=CC2C3)CC1 (stereo not drawn)
    -8.0, /
Cc1cccc(N2CCN(C(=O)/C=C3\Sc4ccccc4NC3=O)CC2)c1C
    21.0, /
O=C(Cc1ccccc1)c1ccc(Br)cc1
    /, -0.9
CC1=C(C#N)C(c2cc(Br)ccc2O)C(C#N)=C(C)N1
    -14.0, /
CCOC(=O)N1CCN(CC(O)COc2cc(C)c(Cl)c(C)c2)CC1 (stereo not drawn)
    10.0, /
COc1ccc(-c2nn(-c3ccccc3)cc2CCC(=O)O)cc1
    -22.0, -0.1
O=C(OCc1c(F)cccc1Cl)c1ccc(Cl)cc1
    /, 1.1

# (cont.)
# Below each SMILES – Sa helicase inh, MgrA DNA FP
NC(=O)C1CCN(C(=O)c2ccc(/C=C3/Oc4ccccc4N(Cc4ccccc4F)C3=O)cc2)CC1
    13.0, 0.2
Cn1cnc(S(=O)(=O)N(Cc2ccccc2)Cc2ccccc2N2CCC(C(=O)O)CC2)c1
    /, -1.9
Cc1ccccc1NC(=O)CCC1COc2ccccc2O1 (stereo not drawn)
    2.0, 0.2
C(=N\N1CCN(c2ccccn2)CC1)/c1ccco1
    6.0, 4.9
CCOC(=O)C1CCN(C(=O)[C@H](Cc2ccccc2)N2Cc3ccccc3C2=O)CC1
    1.0, /
Cn1cc(S(=O)(=O)c2ccccc2)c(=O)c2cc(F)ccc21
    2.0, /
COc1ccc2c(C)[nH]c(=O)cc2c1
    4.0, -0.6
O=C(NCCc1ccncc1)C(F)(F)F
    /, -7.8
Cc1ccc(/C=C/C(=O)N(Cc2nc3ccccc3c(=O)[nH]2)CC2CCCO2)o1 (stereo not drawn)
    7.0, /

# Source: PubChem
